Screening data from PubChem BioAssay.
Beta cell apopt = beta cell apoptosis inhibition. INS-1E cytokine-induced death, ATP luminescence, 48 h; percent of positive-control rescue, neutral wells zero. protection from apoptosis, % (no concentration beside the values). actives 0.8% (n = 300,000). AID 435005;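 active = all replicates at 75% or more, or half of them and the mean; inconclusive = half reach 75% but not the mean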;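 also: 0% = cytokine-treated negative control wells and 100% = positive control rescue; higher means more ATP so stronger rescue from cytokine killing; wells of about 40 µL received 100 nL stock; the first replicate is given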
A1 inh = inhibitors of the anti-apoptotic protein A1, read as caspase activation; MEF A1-2A-BIM cells, Caspase-Glo 3/7 luminescence, 3 h; percent of clofoctol response, vehicle zero; caspase activation, % (no concentration beside the values); actives 0.066% (n = 330,000); AID 2462;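 active = over half of replicate activation scores above 10%, or exactly half above 10 with the replicate mean above 10; inconclusive = replicate mean below 10 yet half the replicates above 10; inactive = over half of replicates below 10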;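 also: wells of about 30 µL received 50 nL stock; many hits fall short of the cut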
T cruzi repl = T. cruzi replication inhibition. inhibition, % (concentration not given with the values). actives 1.4% (n = 300,000). T. cruzi beta-gal in NIH3T3, luminescence, 90 h;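 active = mean inhibition across valid replicates above about 55%, limit read from the data; inconclusive = mean below that limit but half or more replicates reach it; inactive = mean below it, under half of replicates reach it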;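 also: signal also drops with host cell toxicity which is not excluded here; 0% = plate median of DMSO wells and 100% = zero luminescence signal; higher percent means less beta-gal luminescence so fewer parasites; stock transfer was 50 nL into about 50 µL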
MLL AF4-AF9 inh = blocks AF4 peptide binding to human AF9; P42568; actives 0.47% (n = 350,000); inhibition, % at 10 µM; AlphaScreen, biotin-AF4 peptide binding to FLAG-AF9;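 active = every replicate reaching a set inhibition limit, whatever the replicate mean, cut at about 25% in these data; inconclusive = mean inhibition reaches that limit but some replicates miss it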;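 also: 0% = plate neutral control median and 100% = total signal loss; the record names both 10 and 1 µM as test concentration; the first replicate is given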
Target sequence (P42568 whole entry, looked up): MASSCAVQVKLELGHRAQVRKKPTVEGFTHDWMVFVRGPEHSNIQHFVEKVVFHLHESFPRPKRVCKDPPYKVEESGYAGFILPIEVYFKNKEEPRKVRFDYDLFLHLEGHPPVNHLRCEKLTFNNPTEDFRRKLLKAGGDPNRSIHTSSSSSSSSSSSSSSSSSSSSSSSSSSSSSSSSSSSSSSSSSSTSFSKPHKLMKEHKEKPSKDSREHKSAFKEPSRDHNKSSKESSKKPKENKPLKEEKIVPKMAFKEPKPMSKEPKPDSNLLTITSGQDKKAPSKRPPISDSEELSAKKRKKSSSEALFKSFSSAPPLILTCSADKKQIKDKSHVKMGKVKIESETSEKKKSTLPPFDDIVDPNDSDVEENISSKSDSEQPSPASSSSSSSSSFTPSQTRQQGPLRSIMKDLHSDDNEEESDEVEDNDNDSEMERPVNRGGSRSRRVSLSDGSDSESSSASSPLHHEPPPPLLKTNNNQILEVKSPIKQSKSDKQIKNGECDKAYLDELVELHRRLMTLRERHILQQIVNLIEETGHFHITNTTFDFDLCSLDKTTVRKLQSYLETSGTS
Ecoli rRNA inh = selective bacterial rRNA inhibition in E. coli. actives 1.6% (n = 350,000). AID 720706. E. coli WT GFP vs humanized-ribosome RFP mutants, fluorescence, 24 h; active compounds read low; DMSO median 0, no signal -100. GFP signal change (wild-type ribosome), % (concentration not given with the values);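 active = significant combined selectivity score with lowered wild-type GFP, culture density cut under 30%, mutant RFP and density less affected; inactive = any of these conditions unmet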; also: one replicate is shown; some compounds called inactive have numbers as strong as hits
Calb FLC = affects C. albicans growth with fluconazole; C. albicans CaCi-2 (fluconazole-resistant clinical isolate) + fluconazole, Alamar Blue growth, 48 h; growth inhibition, % (concentration not given with the values); actives 0.57% (n = 300,000);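 active = most replicates above 75%; inconclusive = exactly half above 75%; inactive = most below 75%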;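 also: all wells also contain fluconazole at 8 µg/ml as a sub-toxic cotreatment; 0% = median of DMSO wells and 100% = median of geldanamycin control wells; wells of about 8 µL received 7.5 nL stock; the first replicate is given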
Vif A3G = HIV-1 Vif–A3G interaction blockers – biochemical, TR-FRET, GST-Vif 1-94, biotin-A3G peptide, dose response retest, primary screen (AID 1117319) | TR-FRET GST-Vif / biotin-A3G peptide binding; higher % means a stronger effect; test concentration not given here; strong numbers were not always called active | inhibition, %; hits with a dose series show IC50 in µM | actives 0.57% (n = 260,000);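 active = above the screen mean plus three standard deviations and confirmed in dose response; inconclusive = results disagree or hit not tested in dose response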;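 also: Vif residues 1-94 fused to GST binding biotinylated APOBEC3G peptide 110-148; 0% = full assay without inhibitor and 100% = GST in place of GST-Vif; retest series ran down from 100 µM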
RanGTP-Imp inh = inhibitors of RanGTP-importin-beta interaction, primary screen, biochemical, FRET, CFP-Ran, YFP-importin-beta, homogeneous | cell-free CFP-Ran/YFP-importin-beta FRET ratio | inhibition, % (test concentration not listed) | actives 1.1% (n = 300,000) | AID 2216;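 active = most replicates above 15%; inconclusive = exactly half above 15%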;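 also: 0% = DMSO wells and 100% = Ran loaded with GDP instead of GTP; wells of about 40 µL received 100 nL stock; the first replicate is given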
Ecoli rRNA inh OD600 = recorded beside Ecoli rRNA inh, whose call it bears; OD600 change, %; measured here: OD600 growth;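 optical density of the mix in the first replicate; 0 = DMSO median and -100 = no signal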
Ecoli rRNA inh RFP = second read-out of Ecoli rRNA inh, no call of its own (marks repeat the call); RFP signal change, %; measured here: RFP humanized mutant strains;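 first replicate; 0 = DMSO median and -100 = no signal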
The depositor's hits bear a star; ? = inconclusive; . = no result given.

SMILES	Beta cell apopt	A1 inh	T cruzi repl	MLL AF4-AF9 inh	Ecoli rRNA inh	Ecoli rRNA inh OD600	Ecoli rRNA inh RFP	Calb FLC	Vif A3G	RanGTP-Imp inh
OCCN(CCO)c1nc2ccccc2[nH]1	2	-0.3	1	5.7	9	9	13	3	.	-2.4
Cc1ccc(OCC(=O)O/N=C(\N)c2ccncc2)c(C)c1	-1	0.1	21	-1.9	-10	-8	1.0	2	.	-0.2
C[C@H](NS(=O)(=O)OCC(Cl)(Cl)Cl)C1CC1c1ccccc1 (stereo partly specified)	0	1.0	6	-3.1	-24	-40	-1.6	-9	.	-1.6
COc1ccc(C(=O)N(C)CCCC2CCCC2)cc1OC1CCN(C(C)=O)CC1	-2	0.2	39	-4.2	-4	-8	-0.4	-1	1%	-0.3
COc1ccc2oc(C(=O)Nc3ccc(C)cn3)c(C)c2c1	-4	-1.5	5	0.1	0	6	-1.3	.	-5%	2.9
CCn1c(CC(=O)Nc2ccccc2Cl)nnc1SCC(=O)NC1CCCC1	1	0.1	2	0.5	-10	-7	-5.2	1	.	?
COc1ccc(C(=O)/C=C/c2ccc(F)cc2)c(OC(=O)c2ccc([N+](=O)[O-])cc2)c1	-1	-0.4	-9	.	.	.	.	-7	?	-2.4
C=CCn1c(SC(C)C(=O)NCC2CCCO2)nnc1-c1ccc(OC)cc1 (stereo unspecified)	-7	-0.5	.	0.2	5	12	0.9	.	.	.
Cc1ccc(C(=O)NCc2n[nH]c(=S)n2-c2ccccc2)cc1[N+](=O)[O-]	2	-0.7	0	-4.9	9	5	1.0	5	-1%	-1.3
COC(=O)Nc1ccc(S(=O)(=O)Nc2cnc3ccccc3n2)cc1	0	0.5	4	-0.9	-6	-3	-9.4	-16	-1%	4.5
CCN(Cc1ccccc1)C(=O)c1ccc(SC)cc1OC	-1	1.0	-2	7.7	-29	-32	-4.0	14	6%	3.7
Cn1c(CN2CCOCC2)nnc1SCC(=O)Nc1ccc2c(c1)OCCO2	-3	-0.2	-12	.	.	.	.	-13	5%	-1.8
O=C(CSC1=NS(=O)(=O)c2cc(Cl)ccc2N1)NCCc1ccccc1	-1	-0.1	1	-13	-8	-7	0.1	-3	.	2.1
CC(C(=O)Nc1ccccc1)N(C)CCOc1ccc(Br)cc1 (stereo unspecified)	-2	0.2	25	-3.0	-39	-50	-12	-26	-9%	-11
CC1=C(C#N)CCC(=O)N1Cc1c(C)cc(C)cc1C	5	0.4	3	.	.	.	.	1	?	4.3
O=C(O)CCN1C(=O)c2ccccc2Sc2ncccc21	1	1.2	-8	0.6	2	-2	-9.8	-1	-4%	-2.2
COc1ccc(C2c3[nH]c4ccccc4c3CCN2CCCn2cccn2)cc1C (stereo unspecified)	4	-0.7	25	5.0	9	2	2.0	6	8%	-3.2
O=C(CN1CCN(C(=O)c2ccco2)CC1)Nc1ccc(Cl)c(S(=O)(=O)N2CCOCC2)c1	-6	0.2	-8	-1.3	0	6	-1.6	-13	.	6.6
COc1cc(-c2nc3cnccn3c2Nc2ccc(C(C)C)cc2)ccc1O	.	-0.6	40	-2.2	-24	-22	7.0	0	7%	32*
COC(=O)C1=C(C(=O)c2ccc(C)cc2)C(c2ccc(OC)c(OC)c2)n2nnnc2N1 (stereo unspecified)	-3	-0.3	-1	.	.	.	.	-4	2%	7.0

The last 4 entries of the section before are carried over, then new ones follow.
SMILES	Beta cell apopt	A1 inh	T cruzi repl	MLL AF4-AF9 inh	Ecoli rRNA inh	Ecoli rRNA inh OD600	Ecoli rRNA inh RFP	Calb FLC	Vif A3G	RanGTP-Imp inh
COc1ccc(C2c3[nH]c4ccccc4c3CCN2CCCn2cccn2)cc1C (stereo unspecified)	4	-0.7	25	5.0	9	2	2.0	6	8%	-3.2
O=C(CN1CCN(C(=O)c2ccco2)CC1)Nc1ccc(Cl)c(S(=O)(=O)N2CCOCC2)c1	-6	0.2	-8	-1.3	0	6	-1.6	-13	.	6.6
COc1cc(-c2nc3cnccn3c2Nc2ccc(C(C)C)cc2)ccc1O	.	-0.6	40	-2.2	-24	-22	7.0	0	7%	32*
COC(=O)C1=C(C(=O)c2ccc(C)cc2)C(c2ccc(OC)c(OC)c2)n2nnnc2N1 (stereo unspecified)	-3	-0.3	-1	.	.	.	.	-4	2%	7.0
CC(C)[C@H](NC(=O)c1ccccc1F)C(=O)OCC(=O)NC1CC1	-4	0.2	.	-0.6	4	15	-1.2	.	-4%	.
CCCC(O)(c1ccc(CC)cc1)C(CN1CCOCC1)c1ccccc1 (stereo unspecified)	7	0.9	-4	1.8	-37	-67	5.9	-3	-7%	3.3
CSc1nc2c(c(=O)[nH]1)C(c1ccc(Cl)cc1)CC(=O)N2 (stereo unspecified)	2	0.8	5	3.5	3	3	-2.5	-2	.	?
O=C(CCCc1nc(-c2ccccc2)no1)NC1CCCCC1	0	-0.3	-9	-0.6	2	5	2.2	-2	.	-1.4
Cc1ccc(NC(=O)CN(C)C(=O)COc2ccccc2-c2ccccc2)cc1	-3	0.2	.	1.6	-33	-55	-1.1	.	0%	.
COC(C(=O)Nc1ccccc1C(=O)N1CCOCC1)c1ccccc1 (stereo unspecified)	-5	-1.5	-1	-1.4	3	8	0.6	-2	2%	-0.7
CCOC(=O)c1c(NC(=O)CNC2CCCCC2)sc(C)c1C	-3	-0.6	6	-4.9	-27	-43	-14	10	-1%	0.0
NC(=S)N=Nc1c(O)[nH]c2ccc(F)cc12	6	0.7	4	6.5	13	3	5.2	15	14%	-1.7

Shown with bars between the fields: part of the list above
molecule | Beta cell apopt | A1 inh | T cruzi repl | MLL AF4-AF9 inh | Ecoli rRNA inh | Ecoli rRNA inh OD600 | Ecoli rRNA inh RFP | Calb FLC | Vif A3G | RanGTP-Imp inh
CSc1nc2c(c(=O)[nH]1)C(c1ccc(Cl)cc1)CC(=O)N2 (stereo unspecified) | 2 | 0.8 | 5 | 3.5 | 3 | 3 | -2.5 | -2 | . | ?
O=C(CCCc1nc(-c2ccccc2)no1)NC1CCCCC1 | 0 | -0.3 | -9 | -0.6 | 2 | 5 | 2.2 | -2 | . | -1.4
Cc1ccc(NC(=O)CN(C)C(=O)COc2ccccc2-c2ccccc2)cc1 | -3 | 0.2 | . | 1.6 | -33 | -55 | -1.1 | . | 0% | .
COC(C(=O)Nc1ccccc1C(=O)N1CCOCC1)c1ccccc1 (stereo unspecified) | -5 | -1.5 | -1 | -1.4 | 3 | 8 | 0.6 | -2 | 2% | -0.7

These rows are one share of the data; rates above refer to the full screens.
